Methyltransferases: Primary Screen for Target Class Profiling of Small Molecule Inhibitors of Methyltransferases; purified enzyme, MTase-Glo SAH luminescence; active compounds read low; calls only at 40 µM; 25,000 tested, 3.9% active; AID 1745853, 2022; active = -50% or lower on at least one of six enzymes; inconclusive = the cases between; inactive = as a rule above -30% on all six;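 note: enzymes were COMT GAMT GNMT HNMT NNMT and PNMT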
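Each enzyme was assayed with SAM and its substrate. SAH formation detected by MTase-Glo luminescence; single-point 40 uM screen[…].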
Calls only; i = inactive; ? = inconclusive; + = active, no number. % is set by controls: 0 for no effect and ±100 for the full control effect. This is a subset; rates above refer to the full screens.

SMILES	Methyltransferases
CCOC(=O)c1cc2n(n1)CC(C)(C(=O)NC1CCCCC1)N(c1ccc(CC)cc1)C2=O (stereo unspecified)	i
Cc1cccc(CNC(=O)C2(C)Cn3cnc(C(=O)NCc4ccccc4F)c3C(=O)N2C2CC2)c1 (stereo unspecified)	i
O=C(Nc1ccccc1Cl)c1cnc2ccc(C3CCNCC3)cn12	i
C[C@@H](O[C@H]1OCCN(Cc2n[nH]nc2CN(C)C)[C@H]1c1ccc(F)cc1)c1cc(C(F)(F)F)cc(C(F)(F)F)c1	i
Cc1cc2c(cc3n2CC(C)(C(=O)NC2CCCCCC2)N(c2ccc(C)c(C)c2)C3=O)o1 (stereo unspecified)	i
CCOC(=O)c1cc2n(n1)CC(C)(C(=O)NC1CCCC1)N(c1ccccc1CC)C2=O (stereo unspecified)	i
CC(C)Cn1c(=O)c2ccccc2n2c(-c3ccc(Br)cc3)nnc12	i
O=C(Cn1ccc2cc(S(=O)(=O)N3CCCC3)ccc21)NC1CCCC1	i
CC(C)CCNC(=O)C1c2c(n(C)c3ccccc23)SCC(=O)N1CCC(C)C (stereo unspecified)	i
COCCN1C(=O)N(CCCc2cccnc2)C(=O)C12CCN(C/C=C/c1ccc(OC)cc1)CC2	i
CCN1C(=O)CCc2cc(NS(=O)(=O)c3cn(C)c(C)n3)ccc21	i
COCCCNC(=O)CN1CCCc2nc(-c3ccncc3)ncc2C1=O	i
O=C(NCc1ccc(S(=O)(=O)c2cc(F)cc(F)c2)cc1)c1ccc2nccn2c1	i
COc1cccc(CNC(=O)Cn2c(=O)oc3cc(S(=O)(=O)NCc4ccccc4)ccc32)c1	i
CN(C(=O)CCc1nc2ccccc2[nH]1)C1CCc2nn(C)c(=O)n2CC1 (stereo unspecified)	i
COC(=O)N1CC(CN2C(=O)c3c(c(C)nn3-c3ccccc3)C2C)C1 (stereo unspecified)	i
CCC(C)NC(=O)c1ccc2c(=O)n(C)c3nn(CC(=O)Nc4ccc(Cl)cc4)c(=O)n3c2c1 (stereo unspecified)	i
Cc1ccc(C2(C(=O)N3CCC(n4nc(-c5ccccc5)oc4=O)CC3)CC2)cc1	i
NCCc1noc(-c2ccccc2)n1	i
CC(=O)OC1C(CO)OC(O[C@H]2[C@H](OC(=O)[C@]34CCC(C)(C)C[C@H]3C3=CCC5[C@@]6(C)CC[C@H](O[C@@H]7O[C@H](C(=O)O)[C@@H](O)[C@H](O[C@@H]8OC[C@@H](O)[C@H](O)[C@H]8O)[C@H]7O[C@@H]7O[C@H](CO)[C@H](O)[C@H](O)[C@H]7O)[C@@](C)(C=O)C6CC[C@@]5(C)[C@]3(C)C[C@H]4O)O[C@H](C)[C@H](OC3OC(C)C(OC4OCC(O)C(O)C4O)C(O)C3O)[C@@H]2O)C(O)C1O (stereo partly specified)	i
CCOC(=O)c1cccc(N2C(=O)c3cc(C(=O)OCC)nn3CC2(C)C(=O)NCCC(C)C)c1 (stereo unspecified)	i
CCN1C(=O)c2cc(C(=O)Nc3cccc(F)c3)nn2CC1(C)C(=O)NC1CCCC1 (stereo unspecified)	i
CCCN1C(=O)c2cc3ccccc3n2CC1(C)C(=O)NC1CCCCC1 (stereo unspecified)	i
CC1(C(=O)NC2CCCC2)Cn2c(ccc2-c2ccccc2)C(=O)N1Cc1cccc(F)c1 (stereo unspecified)	i
Cc1cc(C(=O)N2c3ccccc3CC2c2nnc(C(C)C)o2)nn1C (stereo unspecified)	i
CCOc1ccc(CCNC(=O)CCc2nnc3n(CCCOC(C)C)c(=O)c4ccccc4n23)cc1	i
C=C1C(=O)OC[C@H]2C(C(=O)O)=CC3CC(C)(C)C[C@@]132 (stereo partly specified)	i
C[C@@H]1O[C@@H](O[C@@H]2[C@@H](O)[C@H](O[C@H]3[C@H](O[C@H]4CC[C@@]5(C)C(CC[C@]6(C)C5CC=C5[C@@H]7CC(C)(C)CC[C@]7(C(=O)O[C@@H]7O[C@H](CO)[C@@H](O)[C@H](O)[C@H]7O[C@@H]7O[C@@H](C)[C@H](O[C@@H]8O[C@@H](C)[C@H](O)[C@@H](O)[C@H]8O)[C@@H](O)[C@H]7O)CC[C@]56C)[C@@]4(C)CO)O[C@H](C(=O)O)[C@@H](O)[C@@H]3O)O[C@H](CO)[C@H]2O)[C@H](O)[C@H](O)[C@H]1O (stereo partly specified)	i
COc1ccc(CC2(CO)CCNCC2)cc1	i
Cc1ccc(NC(=O)CSc2nnc3n(C)c(=O)c4ccc(C(=O)NC5CCCCC5)cc4n23)cc1	i
Cc1cccc(CN2C(=O)c3cc(-c4ccco4)nn3CC2(C)C(=O)NCCC(C)C)c1 (stereo unspecified)	i
COc1ccccc1CN1C(=O)c2ccc(-c3ccccc3)n2CC1(C)C(=O)NC1CCCC1 (stereo unspecified)	i
CC(C)OCCCN1C(=O)c2cc3sccc3n2CC1(C)C(=O)NC1CCCCC1C (stereo unspecified)	i
CC1(C)CCC2(C(=O)O)CCC3(C)C(=CCC4C5(C)CCC(O)C(C)(CO)C5C(O)CC43C)C2C1 (stereo unspecified)	i
C=C[C@H](/C=C\c1ccc(O)cc1)c1ccc(O)cc1	?
CCCn1cc(S(=O)(=O)N[C@H](CC)C2CC(O)C2)cn1 (stereo partly specified)	i
Cc1ccc(C)c(CSc2nnc3n(C)c(=O)c4ccc(C(=O)NC5CCCC5)cc4n23)c1	i
COCCC1(NS(=O)(=O)N(C)C)CCN(S(C)(=O)=O)CC1	i
CC1CCC(NC(=O)C2(C)Cn3c(ccc3-c3ccco3)C(=O)N2Cc2cccnc2)CC1 (stereo unspecified)	i
Cc1ccc(NC(=O)Cn2nc3n(C)c(=O)c4ccc(C(=O)NC(C)C)cc4n3c2=O)cc1	i
CC1(C)CC2C=C(C(=O)O)C3COC(=O)C(O)(CO)C23C1 (stereo unspecified)	i
CC1CCC(NC(=O)C2(C)Cn3c(cc4occc43)C(=O)N2Cc2cccc(Br)c2)CC1 (stereo unspecified)	i
C=C(C)[C@@H]1CC[C@]2(C(=O)O)CC[C@]3(C)C(CCC4[C@@]5(C)C[C@@H](O)[C@H](O)C(C)(C)C5CC[C@]43C)C12 (stereo partly specified)	i
CN(Cc1cccc(N2CCN(Cc3c(Cl)ccc(Cl)c3Cl)CC2)c1)[S+](C)(=O)[O-]	i
O=C(Cn1c(=O)oc2cc(S(=O)(=O)N3CCCC3)ccc21)Nc1ccc(F)cc1	i
CCCn1c(=O)c2ccc(C(=O)NC(C)C)cc2n2c(=O)n(CC(=O)NC(C)C)nc12	i
COc1ccc(-c2cc(=O)c3c(O)c(OC)c(OC)cc3o2)cc1O	?
COC(=O)CC(C)(O)CC(=O)OCc1ccc(O[C@@H]2O[C@H](CO)[C@@H](O)[C@H](O)[C@H]2O)cc1 (stereo partly specified)	i
CC(C)CCN1C(=O)c2ccc(-c3ccco3)n2CC1(C)C(=O)NC1CCCCCCC1 (stereo unspecified)	i
Cc1ccsc1CCNS(=O)(=O)c1ccc2[nH]c3c(c2c1)CCCC3	i
Cc1ccc(CNC(=O)Cn2nc3n(C(C)C)c(=O)c4ccc(C(=O)NCC(C)C)cc4n3c2=O)cc1	i
C#CCNC(=O)C[C@@H]1C[C@@H](C(C)C)[C@H](CNS(C)(=O)=O)C=C1C	i
COc1ccc(-c2noc(-c3cccn3CC(=O)NC(C)C)n2)cc1F	i
CC1(O)CCC2C(C(=O)O)=COC(OC3OC(CO)C(O)C(O)C3OC(=O)/C=C/c3ccc(O)cc3)C21 (stereo unspecified)	i
Cc1ccc(NC(=O)N2Cc3c(sc4c3CCCC4)-n3cccc3C2c2ccc(F)cc2)cc1 (stereo unspecified)	i
Cc1cc(F)ccc1NS(=O)(=O)c1ccc2c(c1)n(C)c(=O)n2C	i
CC(C)N1CCCC2(CCN(C(=O)c3cc(C#N)cn3C)C2)C1=O (stereo unspecified)	i
COC(=O)[C@@H]1Cc2ncn(Cc3ccc(Cl)cc3)c2CN1Cc1ccc(N(C)C)cc1	i
COc1cccc(CN2C[C@@H](CO)[C@H](NC(=O)C3CCC3)C2)c1	i
CSCCC(=O)N1CCC(C2CCN(c3ncccn3)CC2)C1 (stereo unspecified)	i

Some of the entries so far, as comma-separated lines:
molecule,Methyltransferases
COc1cccc(CN2C[C@@H](CO)[C@H](NC(=O)C3CCC3)C2)c1,i
C#CCNC(=O)C[C@@H]1C[C@@H](C(C)C)[C@H](CNS(C)(=O)=O)C=C1C,i
Cc1ccc(NC(=O)N2Cc3c(sc4c3CCCC4)-n3cccc3C2c2ccc(F)cc2)cc1 (stereo unspecified),i
CC1(O)CCC2C(C(=O)O)=COC(OC3OC(CO)C(O)C(O)C3OC(=O)/C=C/c3ccc(O)cc3)C21 (stereo unspecified),i
CC(C)CCN1C(=O)c2ccc(-c3ccco3)n2CC1(C)C(=O)NC1CCCCCCC1 (stereo unspecified),i
CC(C)N1CCCC2(CCN(C(=O)c3cc(C#N)cn3C)C2)C1=O (stereo unspecified),i
Cc1ccc(CNC(=O)Cn2nc3n(C(C)C)c(=O)c4ccc(C(=O)NCC(C)C)cc4n3c2=O)cc1,i

Rewritten in markdown: entries from further up
| Compound | Methyltransferases |
| --- | --- |
| Cc1ccc(NC(=O)N2Cc3c(sc4c3CCCC4)-n3cccc3C2c2ccc(F)cc2)cc1 (stereo unspecified) | i |
| Cc1cc(F)ccc1NS(=O)(=O)c1ccc2c(c1)n(C)c(=O)n2C | i |
| CC(C)N1CCCC2(CCN(C(=O)c3cc(C#N)cn3C)C2)C1=O (stereo unspecified) | i |

(listing goes on)
SMILES	Methyltransferases
CCn1cc(S(=O)(=O)N2CCCC2Cc2noc(-c3ccccc3)n2)cn1 (stereo unspecified)	i
CO[C@H]1C=CO[C@@]2(C)Oc3c(C)c(O)c4c(O)c(c5c(c4c3C2=O)NC2(CCN(CC(C)C)CC2)N=5)=NC(=O)C(C)=CC=C[C@H](C)[C@H](O)[C@@H](C)[C@@H](O)[C@@H](C)[C@H](OC(C)=O)[C@H]1C	i
CC1CCCN1C(=O)c1cc(-c2ccc(C(F)(F)F)cc2)nc2c1cnn2C (stereo unspecified)	i
CC(C)CN(C1CCN(C)CC1)C1CN(C(=O)c2cccs2)C1	i
C=CC(C)(O)CC/C=C(/C)C(=O)OC1C(OC2OCC(OC3OC(CO)C(O)C(O)C3O)C(OC3OCC(O)C(OC4OC(C)C(O)C(O)C4O)C3O)C2O)COC(OC(=O)C23CCC(C)(C)CC2C2=CCC4C5(C)CCC(OC6OC(CO)C(OC7OC(CO)C(O)C(OC8OCC(O)C(O)C8O)C7O)C(O)C6O)C(C)(C)C5CCC4(C)C2(C)CC3O)C1O (stereo unspecified)	i
O=C(NC1CCCCC1)c1cc(-c2ccc(F)cc2)c2nncn2n1	i
O=C1Nc2ccccc2C2(CCN(C(=O)c3cccnc3)C2)O1 (stereo unspecified)	i
C/C(=C\CCC(C)CCO)C(=O)O[C@@H]1[C@@H](O)[C@H](OC2OC=C(C(=O)O)C3CCC(C)(O)C23)O[C@H](CO)[C@H]1O (stereo partly specified)	i
CC1CCCCN1CCCN1C(=O)c2cc3occc3n2CC1(C)C(=O)NC1CCCCCCC1 (stereo unspecified)	i
COc1cccc(Cn2nc3n(CC(C)C)c(=O)c4ccc(C(=O)NC(C)C)cc4n3c2=O)c1	i
COc1ccccc1Nc1ncc2c(n1)CN(C(=O)c1cc3ccccc3n1C)CCN2	i
Cc1ccc(C)c(N2C(=O)CSc3c(c4ccccc4n3C)C2C(=O)NCc2ccc(F)cc2)c1 (stereo unspecified)	i
Cn1c(=O)c2ccc(C(=O)NC3CCCCC3)cc2n2c(=O)n(CC(=O)Nc3cccc(F)c3)nc12	i
CCC(=O)N1Cc2ccccc2CC2(CCCN2CC2CCOCC2)C1 (stereo unspecified)	i
CC1CCC2(O1)C(C)(C)CC(O[C@@H]1O[C@H](CO[C@@H]3OC[C@](O)(CO)[C@H]3O)[C@@H](O)[C@H](O)[C@H]1O)CC2(C)O (stereo partly specified)	i
CCOc1ccc(CN2C(=O)c3cc(-c4ccccc4)nn3CC2(C)C(=O)NCCCOC)cc1 (stereo unspecified)	i
Cc1nc(NC(=O)N2CCCC2C(N)=O)sc1-c1csc(C(C)(C)C)n1 (stereo unspecified)	i
O=C(O)c1cccc(C2CCCN(C(=O)CCCn3ccnc3)C2)c1 (stereo unspecified)	i
Cc1nnc2n1CCC(N(C)C(=O)NC1CCCC1)CC2 (stereo unspecified)	i
CN(C)c1ccc(C(=O)NC[C@H]2O[C@@H](CO)[C@@H](O)[C@H]2N(C)Cc2ccccc2)cc1	i
CCCN1C(=O)c2c(-n3cccc3)c3cc(C)ccc3n2CC1(C)C(=O)NC1CCCC1 (stereo unspecified)	i
CCOc1ccc(N(C(=O)C(C)C)S(=O)(=O)c2ccc3c(c2)n(C)c(=O)n3C)cc1	i
CC(=O)Nc1ccc2c(c1)C1C=CCC1C(c1ccccc1F)N2 (stereo unspecified)	?
O=C(CNC(=O)c1cccc(-c2ccc(C(F)(F)F)cc2)c1)NCC(F)(F)F	i
Cc1ccc(-c2ccc(N)nc2)c2cccnc12	+
CC(C)Cc1nc(NC(=O)C[C@H]2NC(=O)c3ccccc3NC2=O)n[nH]1	i
CCc1cc(C(=O)N2CCC(c3nnc(Cn4cncn4)n3C)CC2)no1	i
Cc1cc(F)ccc1NC(=O)Cn1nc2nc(Nc3ccc(F)cc3)ccn2c1=O	i
CCNC(=O)N[C@H]1[C@H](O)[C@@H](N2CCN(c3ccccc3OC)CC2)[C@@H]2OC[C@H]1O2	i
CCCN1C(=O)c2c(C(=O)NCc3cccc(OC)c3)ncn2CC1(C)C(=O)NCc1ccc(OC)cc1 (stereo unspecified)	i
Cc1cc2c(cc1N1C(=O)c3cccc4c(CCCO)ccc(c34)C1=O)n(C)c(=O)n2C	i
O=C(CCc1nnc2n(Cc3ccc(F)cc3)c(=O)c3ccccc3n12)Nc1ccc(F)cc1	i
NCCCCCC(=O)O	i

Bioassay records from PubChem.
